Bioassay records deposited in PubChem by National Center for Advancing Translational Sciences (NCATS).
hNpr1 antagonist – antagonists of human natriuretic peptide receptor Npr1; P16066; HEK293 hNpr1 GloSensor cGMP, ANP-stimulated luminescence; Potency, µM (highest dose often 46.3 µM), inactives show top-dose activity change, negative = inhibition, actives largely listed as inhibitors; hit rate 1.6% among 76,000; active = well fitted inhibition curve with a large enough effect; inconclusive = small, poorly fitted or top-dose-only effect; inactive = no such curve, though single readings can be large or run the other way;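 note: nearly all actives have a fitted effect of over 60% in size; nearly all hits also lower the signal before the agonist is added; a reference antagonist and vehicle were the controls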
Target sequence (P16066 whole entry, looked up): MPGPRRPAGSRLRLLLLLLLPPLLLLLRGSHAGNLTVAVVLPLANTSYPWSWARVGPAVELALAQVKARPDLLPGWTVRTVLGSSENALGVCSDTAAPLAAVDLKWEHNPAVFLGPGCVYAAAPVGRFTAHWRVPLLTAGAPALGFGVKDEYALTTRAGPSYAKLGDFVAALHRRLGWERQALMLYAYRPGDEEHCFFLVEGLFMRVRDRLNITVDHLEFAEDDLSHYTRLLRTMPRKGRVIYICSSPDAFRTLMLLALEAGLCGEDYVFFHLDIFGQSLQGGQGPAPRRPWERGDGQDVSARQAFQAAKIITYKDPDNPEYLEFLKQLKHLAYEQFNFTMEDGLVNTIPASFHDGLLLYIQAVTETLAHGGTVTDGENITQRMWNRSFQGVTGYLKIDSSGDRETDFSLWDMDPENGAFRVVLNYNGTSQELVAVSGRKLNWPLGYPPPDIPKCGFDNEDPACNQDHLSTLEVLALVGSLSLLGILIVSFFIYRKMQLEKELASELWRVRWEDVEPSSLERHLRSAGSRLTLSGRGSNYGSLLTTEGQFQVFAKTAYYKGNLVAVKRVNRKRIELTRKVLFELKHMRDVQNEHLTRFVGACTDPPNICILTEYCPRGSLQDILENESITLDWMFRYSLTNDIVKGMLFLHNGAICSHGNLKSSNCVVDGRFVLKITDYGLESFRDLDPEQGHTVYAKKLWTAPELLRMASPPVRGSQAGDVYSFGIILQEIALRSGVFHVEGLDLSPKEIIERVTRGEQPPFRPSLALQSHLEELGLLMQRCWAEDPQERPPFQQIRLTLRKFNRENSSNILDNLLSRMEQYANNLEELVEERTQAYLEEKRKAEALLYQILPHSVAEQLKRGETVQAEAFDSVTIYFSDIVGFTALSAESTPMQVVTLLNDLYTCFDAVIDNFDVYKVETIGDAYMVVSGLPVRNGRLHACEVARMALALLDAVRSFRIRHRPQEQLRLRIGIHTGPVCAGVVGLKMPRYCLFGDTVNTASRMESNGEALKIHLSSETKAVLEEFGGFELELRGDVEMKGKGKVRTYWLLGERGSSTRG
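Compound pre-incubated 30 min at room temperature on GloSensor-loaded HEK293 cells stably carrying hNpr1 and the pGS-40F cGMP biosensor. Stimulation uses hNppA at 0.1 nM final; luminescence is taken at baseline and 20 min post-agonist.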
Active calls of the source: *; ? = inconclusive; [ ] = another dose, or the depositor's remark. % is set by controls: 0 for no effect and ±100 for the full control effect; potency is the fitted concentration of half-maximal effect.

SMILES | hNpr1 antagonist
Cc1ccc([C@H]2CN(C(=O)CN3C(=O)CNC3=O)[C@@H]3C4CCN(CC4)[C@H]23)cc1 | 4%
CC(=O)Nc1ccc(S(=O)(=O)N2C[C@@H]3C[C@H](C2)c2c(-c4cccs4)ccc(=O)n2C3)cc1 | -4%
COc1cc2c(cc1OCc1ccccc1)N(C(=O)c1cccc(N(C)C)c1)CC21CCN(C)CC1 | 3%
COc1ccc(-c2cc([C@H]3CN4CC[C@H]3C[C@@H]4CNC(=O)NCc3ccccc3)n(C)n2)cc1 | -3%
CC(C)(C)c1ccc(NC(=O)OC[C@H]2C[C@@H]3CCN2C[C@@H]3c2cc(C3CCCC3)nc(-c3ccncc3)n2)cc1 | 5%
CN1Cc2ccccc2-n2ccnc2C12CCN(C(=O)C1CCOCC1)CC2 | 1%
Cc1ccc(NC(=O)N2C[C@@H]3C[C@H](C2)c2c(-c4ccccc4F)ccc(=O)n2C3)cc1 | 5%[70.6 µM]
CCn1nccc1C(=O)N1[C@H]2CC[C@@H]1c1cnc(-c3ccccc3)nc1C2 | 13µM*
CCC(CC)c1cc([C@H]2CN3CC[C@H]2C[C@@H]3CNC(=O)Nc2ccc(C(C)=O)cc2)nc(-c2ccncc2)n1 | 5%
CN(C)CCN(C)C[C@H]1CN2CC[C@H]1C[C@@H]2CNC(=O)c1ccc(N(C)C)cc1 | 6%[70.6 µM]
Cc1cnc(C2CC2)n1C1CCNCC1 | 0%
CC(C)NC(=O)NC[C@H]1C[C@@H]2CCN1C[C@@H]2c1cc(-c2ccccc2)nn1C | 3%[70.6 µM]
COc1cccc(CC(=O)N2CC[C@H]3C(=O)NCCCCCN(Cc4cccnc4)[C@@H]3C2)c1 | 3%
Cc1ncc2c(n1)C[C@@H]1CC[C@H]2N1S(=O)(=O)Cc1ccccc1 | -2%
CC(C)(C)NC(=O)N1[C@H]2CC[C@@H]1c1cnc(-c3ccccc3)nc1C2 | -13%
COc1cccc(S(=O)(=O)N2CCC3(C2)C(=O)N(C)c2ccc(OC)cc23)c1 (stereo unspecified) | -17%
CN(C1CCNCC1)C1CCOCC1 | 3%
COc1cc2c(cc1OCc1ccncc1)NC(=O)C21CCN(Cc2ccncc2)CC1 | -10%[70.6 µM]
Cc1ccncc1C(=O)N1[C@H]2CC[C@@H]1c1cnc(-c3ccc(F)cc3)nc1C2 | -21%
Cc1noc(-c2ccc(N3CC4CC(C3)c3cccc(=O)n3C4)nc2)n1 (stereo unspecified) | -7%
CCCNC(=O)OC[C@H]1C[C@@H]2CCN1C[C@@H]2c1cc(-c2ccc(OC)c(OC)c2)nn1C | -1%
CN1Cc2ccccc2-n2ccnc2C12CCN(C(=O)c1ccoc1)CC2 | -1%
Cc1ncc2c(n1)C[C@@H]1CC[C@H]2N1C(=O)Nc1ccc(C)c(C)c1 | -1%
COc1ccccc1-c1cc([C@H]2CN3CC[C@H]2C[C@@H]3COC(=O)Nc2ccc(C(C)C)cc2)nc(C)n1 | -26%
COc1ccc(-c2cn(C[C@H]3CC4CCN3C[C@@H]4C(=O)N3CCN(c4ccccc4OC)CC3)nn2)cc1 (stereo partly specified) | 1%
Cc1cc(C(=O)N2[C@H]3CC[C@@H]2c2cnc(-c4ccccc4)nc2C3)nn1C | -16%
COc1ccc(-c2cc([C@H]3CN4CC[C@H]3C[C@@H]4COC(=O)NC(C)C)n(C)n2)cc1OC | -4%
COc1ccc(-c2cc([C@H]3CN4CC[C@H]3C[C@@H]4CNC(=O)N3CCOCC3)nc(C)n2)cc1OC | 1%
O=C(NC1CCCCC1)[C@H]1CN2CC[C@H]1C[C@@H]2Cn1cc(C2(O)CCCCC2)nn1 | 7%[70.6 µM]
Cc1ncc2c(n1)C[C@@H]1CC[C@H]2N1C(=O)c1ccnn1C | -1%
COc1ccccc1-c1cc([C@H]2CN3CC[C@H]2C[C@@H]3CNC(=O)N2CCOCC2)n(C)n1 | 4%[70.6 µM]
CCC(=O)N1[C@H]2CC[C@@H]1c1cnc(-c3ccc(F)cc3)nc1C2 | ?
COc1ccc(-c2cc([C@H]3CN4CC[C@H]3C[C@@H]4CNC(=O)C3CCC3)nc(C)n2)cc1OC | -12%
Cc1nc(C)c(C(=O)N2[C@H]3CC[C@@H]2c2cnc(-c4ccccc4)nc2C3)s1 | ?
CCC(CC)c1cc([C@H]2CN3CC[C@H]2C[C@@H]3CNC2CCN(C)CC2)nc(-c2ccncc2)n1 | -8%
CCCSc1ncc(CN2CC[C@H]3CNC[C@H]32)cn1 | 2%
CCCS(=O)(=O)NC[C@H]1C[C@@H]2CCN1C[C@@H]2c1cc(-c2ccccc2)nc(C)n1 | 2%[70.6 µM]
c1cncc(C2CCCCN2Cc2cc3n(n2)CCNC3)c1 (stereo unspecified) | -2%
CC(C)CCN1C[C@@H]2C(=O)N(C)C(=O)[C@@H]2C1 | -1%
O=S(=O)(NC[C@H]1C[C@@H]2CCN1C[C@@H]2CN1CCN(c2ccccn2)CC1)c1ccccc1 | -9%

Sorted by heavy-atom count (smallest number first): some entries from above
SMILES | hNpr1 antagonist
CC(C)CCN1C[C@@H]2C(=O)N(C)C(=O)[C@@H]2C1 | -1%
CCCSc1ncc(CN2CC[C@H]3CNC[C@H]32)cn1 | 2%
Cc1ncc2c(n1)C[C@@H]1CC[C@H]2N1C(=O)c1ccnn1C | -1%
CCC(=O)N1[C@H]2CC[C@@H]1c1cnc(-c3ccc(F)cc3)nc1C2 | ?
CC(C)(C)NC(=O)N1[C@H]2CC[C@@H]1c1cnc(-c3ccccc3)nc1C2 | -13%
Cc1noc(-c2ccc(N3CC4CC(C3)c3cccc(=O)n3C4)nc2)n1 (stereo unspecified) | -7%
CN1Cc2ccccc2-n2ccnc2C12CCN(C(=O)c1ccoc1)CC2 | -1%
Cc1ccncc1C(=O)N1[C@H]2CC[C@@H]1c1cnc(-c3ccc(F)cc3)nc1C2 | -21%
CN(C)CCN(C)C[C@H]1CN2CC[C@H]1C[C@@H]2CNC(=O)c1ccc(N(C)C)cc1 | 6%[70.6 µM]
O=C(NC1CCCCC1)[C@H]1CN2CC[C@H]1C[C@@H]2Cn1cc(C2(O)CCCCC2)nn1 | 7%[70.6 µM]
Cc1ccc(NC(=O)N2C[C@@H]3C[C@H](C2)c2c(-c4ccccc4F)ccc(=O)n2C3)cc1 | 5%[70.6 µM]
CC(=O)Nc1ccc(S(=O)(=O)N2C[C@@H]3C[C@H](C2)c2c(-c4cccs4)ccc(=O)n2C3)cc1 | -4%
COc1cccc(CC(=O)N2CC[C@H]3C(=O)NCCCCCN(Cc4cccnc4)[C@@H]3C2)c1 | 3%
COc1ccc(-c2cc([C@H]3CN4CC[C@H]3C[C@@H]4CNC(=O)NCc3ccccc3)n(C)n2)cc1 | -3%
COc1ccc(-c2cc([C@H]3CN4CC[C@H]3C[C@@H]4CNC(=O)N3CCOCC3)nc(C)n2)cc1OC | 1%
COc1cc2c(cc1OCc1ccccc1)N(C(=O)c1cccc(N(C)C)c1)CC21CCN(C)CC1 | 3%
CCC(CC)c1cc([C@H]2CN3CC[C@H]2C[C@@H]3CNC(=O)Nc2ccc(C(C)=O)cc2)nc(-c2ccncc2)n1 | 5%
CC(C)(C)c1ccc(NC(=O)OC[C@H]2C[C@@H]3CCN2C[C@@H]3c2cc(C3CCCC3)nc(-c3ccncc3)n2)cc1 | 5%

(further entries)
SMILES | hNpr1 antagonist
CN1CCN(C(=O)Cc2cccn2-c2ccc(F)cc2)CC1 | -2%
CN1CCC(N2C[C@@H]3C[C@H](C2)c2c(NC(=O)c4ccccn4)ccc(=O)n2C3)CC1 | 6%[70.6 µM]
O=C1NCCCCCCN(Cc2ccncc2)[C@@H]2CN(C(=O)COc3ccccc3)CC[C@@H]12 | 6%
CC[C@H]1CN2CC[C@H]1C[C@@H]2CNS(=O)(=O)c1ccc(Cl)cc1 | 3%[70.6 µM]
COc1cc2c(cc1Oc1cccc(N(C)C)c1)NC(=O)C21CCN(c2cnccn2)CC1 | ?
CCCSc1ncc(CN2CCCC3(CCNC3)C2)cn1 (stereo unspecified) | 8%
Cn1nc(C2CCCNC2)n(C2CCCC2)c1=O (stereo unspecified) | -2%
CC[C@H]1CN2CC[C@H]1C[C@@H]2CNCc1ccc(C(F)(F)F)cc1 | -1%[70.6 µM]
Cn1nc(C2CCCCC2)cc1[C@H]1CN2CC[C@H]1C[C@@H]2CNC(=O)N1CCOCC1 | 10%[70.6 µM]
Cc1ccc(S(=O)(=O)NC[C@H]2C[C@@H]3CCN2C[C@@H]3CN2CCN(c3ccccn3)CC2)cc1 | -6%
OCC1CN(C2CCC2)CC12CCN(Cc1ccncc1)CC2 (stereo unspecified) | 13%
O=C(NC[C@H]1C[C@@H]2CCN1C[C@@H]2CN1CCSCC1)c1ccccc1 | 1%[70.6 µM]
COc1cc2c(cc1OCC1CCCC1)N(C(=O)CC(C)C)CC21CCN(CC(=O)O)CC1 | 2%
CC(=O)N1C[C@@H]2C[C@H](C1)c1ccc(NC(=O)c3ccc(F)cc3)c(=O)n1C2 | 0%[70.6 µM]
COc1ccccc1CNC(=O)[C@H]1CN2CCC1C[C@@H]2Cn1cc(-c2cccc(N)c2)nn1 (stereo partly specified) | 6%
Cc1nc(-c2ccc(F)cc2)cc([C@H]2CN3CC[C@H]2C[C@@H]3CNC(=O)c2ccco2)n1 | 8%[70.6 µM]
COCC(=O)NC[C@H]1C[C@@H]2CCN1C[C@@H]2c1cc(-c2cccs2)nn1C | 4%[70.6 µM]
O=c1c(-c2cccs2)ccc2n1C[C@H]1C[C@@H]2CN(Cc2cc3ccccc3o2)C1 | -20%[70.6 µM]
CCc1ccc(C(=O)N2CCC3(CC2)c2nccn2-c2ccccc2CN3C)cc1 | -2%
O=C1NCC2(CCCN(Cc3cc(=O)c4cccc(F)c4[nH]3)C2)O1 (stereo unspecified) | 1%
O=C1[C@H]2CNC[C@H]2C(=O)N1CCc1ccccc1 | 0%
CN(C)Cc1ccccc1-c1ccc2n(c1=O)C[C@H]1C[C@@H]2CN(C(=O)c2cccs2)C1 | 0%[70.6 µM]
Cn1nc(C2CCCCC2)cc1[C@H]1CN2CC[C@H]1C[C@@H]2CNC(=O)c1ccc2c(c1)OCO2 | -2%
Cc1ccc(-n2cccc2CC(=O)N2CCN(C3CCN(C)CC3)CC2)cc1 | 0%
COCCn1c(C)cc(C(=O)NC2CCc3nnc(C4CC4)n3CC2)c1C (stereo unspecified) | 1%
COc1cc2c(cc1Oc1cccc(N(C)C)c1)NC(=O)C21CCN(Cc2ccccn2)CC1 | 10µM*
O=C(NC[C@H]1C[C@@H]2CCN1C[C@@H]2CN1CCN(c2ccccn2)CC1)Nc1ccccc1 | 3%[70.6 µM]
CC(C)(C)NC(=O)N1[C@H]2CC[C@@H]1c1cncnc1C2 | 7%
c1cncc(CN2CCOC[C@H]3CCNC[C@H]32)c1 | 2%
COc1ccc(-c2cc([C@H]3CN4CC[C@H]3C[C@@H]4CNC(=O)c3ccc(C)cc3)n(C)n2)cc1OC | 0%
CCS(=O)(=O)N1CC(COC)C2(CCNCC2)C1 (stereo unspecified) | 7%
Cc1ccc2nc(C(=O)N3CC4CC(C3)c3cccc(=O)n3C4)cn2c1 (stereo unspecified) | 0%
C=C[C@H]1CN2CC[C@H]1C[C@@H]2CNS(=O)(=O)c1cccs1 | 1%[70.6 µM]
COc1ccc(-c2cn(C[C@H]3CC4CCN3C[C@@H]4C(=O)NCCNC(C)=O)nn2)cc1 (stereo partly specified) | 4%[70.6 µM]
COc1ccccc1NC(=O)N1C[C@@H]2C[C@H](C1)c1c(-c3cccs3)ccc(=O)n1C2 | 3%[70.6 µM]
COc1ccc(-c2cc([C@H]3CN4CC[C@H]3C[C@@H]4CNC(=O)C3CC3)nc(C)n2)cc1OC | 4%
COc1ccc2c(c1)C1(CCN(C(=O)Nc3cccc(C)c3)C1)C(=O)N2C (stereo unspecified) | -8%
CCC(CC)c1cc([C@H]2CN3CC[C@H]2C[C@@H]3CO)nc(-c2ccncc2)n1 | -28%[70.6 µM]
O=C([C@H]1CN2CCC1C[C@@H]2Cn1cc(CCO)nn1)N1CCCC1 (stereo partly specified) | 1%[70.6 µM]
O=C(NC1CCCCC1)N1C[C@@H]2C[C@H](C1)c1c(-c3cncnc3)ccc(=O)n1C2 | -4%[70.6 µM]
CC1(C)C(C(=O)N2CCC3(CC2)Nc2ccccc2NC3=O)C1(C)C | -20%
Cc1nc(-c2cccs2)cc([C@H]2CN3CC[C@H]2C[C@@H]3CNC(=O)c2ccc(N(C)C)cc2)n1 | 1%
C=C[C@H]1CN2CC[C@H]1C[C@@H]2CNC(=O)c1ccc(F)c(Cl)c1 | 2%[70.6 µM]
c1cc2nc(C3CCNCC3)[nH]c2cn1 | 0%[70.6 µM]
COc1ccc([C@@H]2CN(S(=O)(=O)N3CCCC3)[C@@H]3C4CCN(CC4)[C@@H]32)cc1 | 4%
O=C(Cc1cccc(F)c1)N1[C@H]2CC[C@@H]1c1cnc(-c3ccc(F)cc3)nc1C2 | -29%
COc1cc2c(cc1Oc1ccccc1)NC(=O)C21CCN(c2nc(C)cc(C)n2)CC1 | -19%[70.6 µM]
COc1cc2c(cc1OCc1ccccc1)N(C(=O)[C@@H]1CCCO1)CC21CCN(C)CC1 | 5%[70.6 µM]

Only part of the results is shown; rates above refer to the full screens.
